# CDC25B-CDK2 inh: human CDC25B-CDK2/CyclinA binding inhibition; P30305+P24941; HTRF CDC25B-CDK2/CyclinA binding, anti-His/anti-Flag; hits give high values; z-score (test concentration not listed); 94,000 tested, 0.72% active; AID 1259370;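 also: score is relative to mean and SD of negative controls; strong numbers were not always called active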
# HIV TAR-Tat: HIV-1 TAR-Tat binding disruption; z-score (no concentration beside the values); 100,000 tested, 0.6% active; HIV-1 TAR RNA, Tat peptide displacement FRET; hits give high values;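 also: score is relative to mean and SD of negative controls; some compounds called inactive have numbers as strong as hits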
# * = called active by the depositor; / = not tested or not shown; & = joins results of further samples.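 The calls were made as follows: active = z-score from 3 up in half or more of its runs; inactive = the rest.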
SMILES	CDC25B-CDK2 inh	HIV TAR-Tat
O=C(CN1C(=O)CCSc2ccccc21)N1CCCC1	-2.41	-1.12
CN(c1ccccc1C(=O)O)S(=O)(=O)c1ccc2c3c(cccc13)C(=O)N2	-0.61	-0.05
Cc1ccc(S(=O)(=O)N2CCCN(S(=O)(=O)c3ccc(C)c(C)c3C)CC2)c(C)c1C	-0.62	-1.22
CC1CN(S(=O)(=O)c2ccc(F)cc2)C(C)CN1S(=O)(=O)c1ccc(F)cc1 (configuration not stated)	-0.79	/
C#CCSc1nnc2[nH]c(=O)cc(N)n12	-0.93&-2.1	-0.44
O=S(=O)(Nc1cc(-c2c(O)ccc3ccccc23)c(O)c2ccccc12)c1ccc(Cl)cc1	-1.71	/
O=c1c2oc3ccccc3c2ncn1C/C=C/c1ccccc1	/	1.39
CCn1nc(C)cc1-c1n[nH]c(=S)o1	-3.35	/
CCOC(=O)C1CCN(C(=O)c2cc3c(=O)n4cccc(C)c4nc3s2)CC1	0.56	/
Cc1ccc(NC(=O)CSCc2cc(=O)n3nc(C4CC4)sc3n2)cc1	/	-0.36
Cn1nc(CC(=O)Nc2nnc(SCC(=O)c3ccccc3)s2)c2ccccc2c1=O	0.51	0.21
Cc1nc2sccn2c(=O)c1S(=O)(=O)N1CCc2ccccc2C1	/	0.67
COc1ccc(C2CC(c3ccc(F)cc3)n3nnnc3N2)cc1 (configuration not stated)	/	1.63
c1ccc(-c2noc(NC3CCCC3)n2)cc1	/	-0.01
Cc1ccc(C2C=C(c3ccc(F)cc3)Nc3nc(CCCO)nn32)cc1 (configuration not stated)	0.43	0.23
O=C(NCCN1CCC(Cc2ccccc2)CC1)NC1COc2ccccc2C1 (configuration not stated)	/	1.15
O=C(O)CSCC(=O)Nc1cc(C(F)(F)F)cc(C(F)(F)F)c1	8.45*	/
COc1cccc(-c2nnc(NC(=O)Nc3ccc(F)cc3)s2)c1	-1.58	/
CN1C(=O)c2ccccc2C(C(=O)NCC2COc3ccccc3O2)C1c1c[nH]c2ccccc12 (configuration not stated)	-2.56	/
O=S(=O)(/N=S1/CCC2(C1)OCCO2)c1cc(C(F)(F)F)cc(C(F)(F)F)c1 (configuration not stated)	-1.91	/
COc1cc(OC)c(NC(=O)CC2=NS(=O)(=O)c3ccccc3N2)cc1Cl	/	-1.58
CCOC(=O)c1oc2ccc3c(c2c1C)C(=O)CC1(CCCCC1)O3	-1.52	-0.61
O=C(CC1(O)C(=O)N(Cc2ccccc2)c2ccccc21)c1ccc2c(c1)OCCO2 (configuration not stated)	-0.45	/
Cc1noc(/C=C/c2ccco2)c1S(=O)(=O)N1CCCC(C(=O)NC(C)(C)C)C1 (configuration not stated)	/	-3.85
O=C1c2cccc3cccc(c23)C(=O)N1CC1CCCO1 (configuration not stated)	0.46	/

# Other results.
SMILES	CDC25B-CDK2 inh	HIV TAR-Tat
CCc1nnc2c(NCC3CCCN3CC)nc3ccccc3n12 (configuration not stated)	/	2.27
O=C(Nc1ccc(O)c(-c2nc3ccccc3o2)c1)c1cccc2c(Br)cccc12	-2.29	/
CCc1c(C)nc2nc(N)[nH]n2c1=O	-2.26	-2.1
CC1(C)Cc2c(sc3c2C(=O)NC(c2ccc(Br)cc2)N3)CO1 (configuration not stated)	0.86	-0.97
CCc1nnc(NC(=O)CCN2C(=O)c3ccccc3S2(=O)=O)s1	-1.39	/
CC(C)CNC(=O)C(=O)NCC(c1ccco1)S(=O)(=O)c1ccccc1 (configuration not stated)	/	1.6
CS(=O)(=O)c1ncc(Cl)c(C(=O)Nc2ccccc2Br)n1	-2.97	1.05
Cc1nn2c(-c3cccc(NS(=O)(=O)c4ccc(F)cc4)c3)nnc2c2ccccc12	-1.16	1.68
O=C(O)CC1(CC(=O)Nc2ccc3sccc3c2)CCCCC1	-1.46	/
NCCc1nnc(SCc2ccc(F)cc2)o1	-2.24	2.99
CCOc1ccc(-c2noc(-c3nnn(-c4cc(OC)cc(OC)c4)c3N)n2)cc1	/	0.42
CCN(CC)CCNC(=O)C1CCN(S(=O)(=O)c2ccc3c(c2)nc(C)n3C2CCCC2)CC1	0.11	0.84
CCCN(CCC)C(=O)CCS(=O)(=O)c1ccc2c(c1)NC(=O)CO2	/	1.26
CCCNC(=O)CSc1nnc(-c2ccoc2C)o1	-0.97	2.51
CCCCN[C@H]1CS(=O)(=O)C[C@@H]1S(=O)(=O)c1ccccc1	-1.03	-2.29
COc1ccc(C2C(C#N)=C(N)Oc3n[nH]c(C)c32)cc1OCc1ccc(Cl)cc1 (configuration not stated)	-2.07	0.5
Cc1ccc(C(=O)CSc2nc(N)c(C(=O)c3ccc(C)cc3)s2)cc1	-1.66	/
Cc1nnsc1C(=O)N1CCN(Cc2ccc3c(c2)OCO3)CC1	-0.26	/
COCCCNc1nc2c(-c3ccc(Cl)cc3)nnn2c2ccccc12	-1.37	0.03
COc1ccccc1C1Oc2ccccc2C2CC(c3cccnc3)=NN21 (configuration not stated)	-0.43	3.47*
O=C(O)C1CCN(S(=O)(=O)c2ccccc2Cl)CC1	-1.26	1.7
COc1ccc(S(=O)(=O)n2nc(C)c(S(=O)(=O)N3CCCC3)c2C)cc1OC	/	0.68
CCc1cc2c3c(c(=O)oc2cc1OCC(=O)O)CCCC3	-1.75	/
CC1=CC(C)(C)N(C(=O)CSc2nnc(C)s2)c2ccccc21	-0.98	-1
Nc1c(C(=O)Nc2ccccc2)sc(=S)n1C1CCCCC1	-1.29	1.3

# Remaining list, next part.
SMILES	CDC25B-CDK2 inh	HIV TAR-Tat
Cn1c2ccccc2c2c(C(=O)NCCCN3CCc4ccccc4C3)cn(C3CCCC3)c(=O)c21	2.39	3.89
Cc1cc2nc(CSCC(=O)Nc3ccc(Cl)cc3)cc(=O)n2o1	/	0.52
CCOC(=O)c1c(C)[nH]c(C)c1S(=O)(=O)N1CCC(C(=O)NC2CCC(C)CC2)CC1 (configuration not stated)	/	-0.31
COc1ncc(C#N)c(N)n1	-1.08	/
Cc1ccc(C2SCC(=O)N2c2ccc3ccccc3c2)cc1 (configuration not stated)	-0.25	0.98
CC(=O)N1N=C(c2cccc(Br)c2)OC1c1ccccc1 (configuration not stated)	/	1.37
CCCCC(O)(c1ccc(C)cc1)C(CN1CCOCC1)c1ccccc1 (configuration not stated)	1.43	0.33
O=C1C2CCCN2C(=S)N1c1ccccc1Cl (configuration not stated)	-2.27	/
OCCN1CCN(c2ncnc3scc(-c4ccc(F)cc4)c23)CC1	1.07	0.36
Cc1ccc(-n2ncc3c(NCCN(C)C)ncnc32)cc1	/	-0.3
CC(=O)c1cccc(N2C(=O)C3C(C2=O)C2(C)c4ccccc4C3(C)c3ccccc32)c1 (configuration not stated)	-2.94	/
O=c1cc(-c2ccccc2)cc(-c2ccccc2)o1	-0.47	/
Cc1cc(Cl)ccc1NS(=O)(=O)c1cc2[nH]c3c(c2cc1C)C(=O)CCC3	/	0.31
COC(=O)c1c(NC(=O)c2cc(=O)c3c(C)cc(C)cc3o2)sc2c1CCC2	-2.06	2.93
CCOC(=O)c1c(OCC)[nH]c2c1cc(O)c1ccccc12	-2.19	0.49
O=C(CCCn1c(=O)c2cccn2c2cccnc21)NCCc1cccs1	/	-0.7
COCCCNC(=O)c1ccc(Cl)c(NC2=NC3CS(=O)(=O)CC3S2)c1 (configuration not stated)	/	1.39
CCCCCCCSc1nnc2[nH]c(=O)cc(N)n12	-0.59	0.88
CN(NC=C(C#N)C#N)c1ccccc1[N+](=O)[O-]	-2.1	/
CC(C)CCNC(=O)Cc1ccc(NC2=NC3CS(=O)(=O)CC3S2)cc1 (configuration not stated)	-0.99	2.35
O=C(COCc1cc(-c2ccc3c(c2)OCO3)on1)N1CCN(c2ncccn2)CC1	/	-0.94
CC(=O)N1CCC(n2c(C)nc3cccnc32)CC1	/	1.57
CN(Cc1ccco1)S(=O)(=O)c1csc(C(N)=O)c1	/	1.41
N/C(=N\O)c1cnn2c(-c3cccc(C(F)(F)F)c3)ccnc12	-1.34	/
Cc1ccnc(NC(c2ccccn2)c2ccc3cccnc3c2O)c1 (configuration not stated)	-0.72	/

# Next compounds
SMILES	CDC25B-CDK2 inh	HIV TAR-Tat
Cc1ccc(S(=O)(=O)N(C)CCc2noc(-c3ccccc3F)n2)c2nsnc12	/	1.83
O=c1nc2c(-c3ccc(F)cc3Cl)n[nH]n2c2ccccc12	-0.93	2.34
Cc1cccc(NC(=O)C(CC(C)C)N2Cc3ccccc3C2=O)n1 (configuration not stated)	/	-1.3
CCN(CC)C(=O)CN1C(=O)N(c2ccc(F)cc2)S(=O)(=O)c2ccccc21	/	2.36
c1ccc(-c2noc(CCC3CCCCC3)n2)nc1	-0.2	-0.82
Cc1csc2ncc(C(=O)NCc3cccs3)c(=O)n12	-1	/
Cn1cncc1CC1COC(=O)C1C(O)c1ccccc1 (configuration not stated)	-1.47	/
Cc1ccn2c([N+](=O)[O-])cnc2c1	-1.06	/
CCCCCn1c(C(CCCC)NC(C)=O)nc2ccccc21 (configuration not stated)	0.77	-0.75
O=C(Nc1nnc(N2CCCC2)s1)Nc1ccc(Br)cc1F	-0.54	0.95
O=C(NNC(=O)C(F)(F)F)C(F)(F)F	-2.12	/
O=C(CN1N=NC2C(=O)N(c3ccc(F)cc3)C(=O)C21)Nc1ccc2c(c1)OCO2 (configuration not stated)	/	0.54
Cc1noc(C)c1-c1nc(CN2C(=O)c3ccccc3S2(=O)=O)no1	-0.76	/
C=CCN1C(=O)N(c2ccc(C)c(Cl)c2)C2CS(=O)(=O)CC21 (configuration not stated)	0.2	1.07
O=C(Nc1ccc(F)cc1)c1noc2c1CCc1sccc1-2	/	0.49
CSc1cccc(NC(=O)Cn2c(=O)n(Cc3ccco3)c(=O)c3sc4ccccc4c32)c1	-1.11	0.68
O=C(O)c1cc(-c2ccccc2F)nc2n[nH]c(-c3ccc(Br)cc3)c12	/	1.9
CN(C)S(=O)(=O)c1ccc2c(c1)NC(=O)CS2	/	2.05
CCOc1ccc(Cl)cc1C1SC(NC(C)=O)=NN1C(C)=O (configuration not stated)	-1.21	0.65
Cc1ccc(CN(C(=O)C(C)Oc2cc(C)c(Cl)c(C)c2)C2CCS(=O)(=O)C2)o1 (configuration not stated)	-1.36	1.66
Cc1noc(/C=C/c2ccco2)c1S(=O)(=O)N1CCCC(C(=O)NC(C)C)C1 (configuration not stated)	/	0.32
C=CC(c1ccccc1)C(C(=O)c1ccccc1)N(C)C (configuration not stated)	0.55	0.87
NC(=O)CSc1nc2c(c(=O)n1-c1ccccc1)C1(CCCCC1)Cc1ccccc1-2	-1.66	-0.55
Cc1ccc(N(CCO)S(=O)(=O)c2ccc(NC3=NS(=O)(=O)c4ccccc43)cc2)cc1	-0.64	/
CCCOc1ccc(Oc2nc(NC)nc(N3CCOCC3)n2)nn1	1.53	0.64

# Grouped by structure, the compounds so far with a COOH group.
SMILES	CDC25B-CDK2 inh	HIV TAR-Tat
CN(c1ccccc1C(=O)O)S(=O)(=O)c1ccc2c3c(cccc13)C(=O)N2	-0.61	-0.05
O=C(O)CSCC(=O)Nc1cc(C(F)(F)F)cc(C(F)(F)F)c1	8.45*	/
O=C(O)CC1(CC(=O)Nc2ccc3sccc3c2)CCCCC1	-1.46	/
O=C(O)C1CCN(S(=O)(=O)c2ccccc2Cl)CC1	-1.26	1.7
CCc1cc2c3c(c(=O)oc2cc1OCC(=O)O)CCCC3	-1.75	/
O=C(O)c1cc(-c2ccccc2F)nc2n[nH]c(-c3ccc(Br)cc3)c12	/	1.9

# Other results
SMILES	CDC25B-CDK2 inh	HIV TAR-Tat
O=C(NCCc1cccs1)c1ccc(N2CCc3ccccc32)s1	/	0.7
Cn1c(=O)c(=O)n(C)c2cc(NS(=O)(=O)c3ccc(F)cc3)c(Cl)cc21	/	0.24
N#CC1=C2SCN(CCc3ccccc3)CN2C(=O)CC1c1cccs1 (configuration not stated)	3.74*	-0.38
COc1cccc(C2c3c(-c4ccccc4O)n[nH]c3C(=O)N2CCc2ccc(OC)c(OC)c2)c1 (configuration not stated)	0.49	-0.14
COC(=O)c1nc2ccccc2c(=O)[nH]1	-0.94	0.19
CSc1ncc(Cl)c(C(=O)Oc2ccc(C)c(C)c2)n1	-1.03	1.59
O=C(Cn1cnc(S(=O)(=O)N2CCOCC2)c1)N1CCOCC1	/	-0.9
CCN(CC)c1ccc(Nc2nc(-c3cccnc3)cs2)cc1	-2.54	1.16
C[C@]12CCC(=O)C=C1C=CC1C2CC[C@@]2(C)C1CC[C@@]21CCC(=O)O1 (some centres not stated)	/	1.24
Cc1[nH][nH]c(=O)c1C(c1c(C)[nH][nH]c1=O)c1c[nH]c2ccccc12	-2.61	-0.49
CCCC(O)(c1ccc(C)cc1)C(CN1CCOCC1)c1ccccc1 (configuration not stated)	-0.34	4.49
Cc1cc(=O)n2[nH]c(C(C)(C)C)cc2n1	-0.65	/
Cc1ccc(C)c(S(=O)(=O)N(CCS(=O)(=O)N2CCNCC2)CC(C)C)c1	/	2.82
CC(C)Cc1nn2cc(-c3ccc(F)cc3)nc2s1	-0.39	-0.31
OC1CCN(Cc2ccccc2)CC1	-1	/
Cc1ccc(NC(=O)C2Sc3nnc(C)n3NC2c2ccc(C)cc2)cc1 (configuration not stated)	-2.35	-0.7
NS(=O)(=O)c1ccccc1Oc1ccc(Cl)cc1Cl	-1.92	/

# Molecules shown so far with a tert-butyl group, in the order listed:
SMILES	CDC25B-CDK2 inh	HIV TAR-Tat
Cc1noc(/C=C/c2ccco2)c1S(=O)(=O)N1CCCC(C(=O)NC(C)(C)C)C1 (configuration not stated)	/	-3.85
Cc1cc(=O)n2[nH]c(C(C)(C)C)cc2n1	-0.65	/

# Bioassay records as filed in PubChem BioAssay.

# Random draw from the library; overall some 0.9% were active at least once.
